# Screening data: PubChem, National Center for Advancing Translational Sciences (NCATS)
# VACV Venus inh – qHTS for Stage-Specific Inhibitors of Vaccinia Orthopoxvirus: Venus Reporter Primary qHTS | Vaccinia virus Venus reporter expression, fluorescence | Potency, µM (highest dose often 36.5 µM), without a hit: top-dose activity change, negative = inhibition, actives largely listed as inhibitors | 330,000 tested, 0.46% active; active means well fitted inhibition curve with a large enough effect; inconclusive means small, poorly fitted or top-dose-only effect; inactive means no such curve, though single readings can be large or run the other way; tested in A549 cells; note: nearly all actives have a fitted effect of over 30% in size; inactives centre near -10
# VACV mCherry inh – qHTS for Stage-Specific Inhibitors of Vaccinia Orthopoxvirus: mCherry Reporter Primary qHTS; Vaccinia virus mCherry reporter infection, fluorescence; about a quarter of the inactives have no number; Potency, µM (titrated, usually from 36.5 µM), without a hit: top-dose activity change, negative = inhibition, most hits filed as inhibitors; 310,000 tested, 0.63% active; active = well fitted inhibition curve with a large enough effect; inconclusive = small, poorly fitted or top-dose-only effect; inactive = no such curve, though single readings can be large or run the other way; tested in A549 cells; note: nearly all actives have a fitted effect of over 35% in size; inactives centre near -10
# * hit, by the source's call; i = inactive; ? = inconclusive; . = no result given; [ ] = dose if it differs, or a comment. % is set by controls: 0 for no effect and ±100 for the full control effect; potency is the fitted concentration of half-maximal effect.
canonical_smiles | VACV Venus inh | VACV mCherry inh
C[C@H](CO)N1C[C@H](C)[C@H](CN(C)S(=O)(=O)c2ccc3c(c2)OCCCO3)OCc2cnnn2CCCC1=O | -21.9% | i
CCOC(=O)N1CCC(NC(=O)C2=CCN(S(=O)(=O)c3ccc(F)cc3)CC2)CC1 | 2.2% | i
COc1ccc(C(=O)Nc2cccc(S(=O)(=O)N3CCCC3)c2)cc1S(=O)(=O)N1CCOCC1 | -8.0% | i
CCc1ccc2oc(C(=O)NCCc3ccc(OC)c(OC)c3)cc(=O)c2c1 | -11.9% | -6.1%
CN1CCN(c2ccc([N+](=O)[O-])cc2NC(=O)c2ccco2)CC1 | -8.6% | i
CCc1ccccc1NC(=O)c1cnc(N2CCCCC2)c2ccccc12 | -8.4% | -4.8%
COCCN(C(=O)c1ccco1)c1nnc(-c2ccc(OC)cc2)s1 | -16.2% | -12.9%
Cc1ccc(-c2cn3c(n2)CCCC3)cc1 | 6.0% | -5.9%
O=C(O)CCN1CC2([N+](=O)[O-])C=CC(=O)C([N+](=O)[O-])(C1)C2CC(=O)c1ccccc1 (stereo not given) | -1.8% | -10.6%
CN(C)N1C(N)=C(C#N)C(c2ccccc2)C2=C1CCCC2=O (stereo not given) | -5.5% | -5.6%
CCOP(=O)(c1ccccc1Cl)C1(O)CCCCC1 (stereo not given) | -15.0% | .
CSCCC(NC(=O)c1ccco1)C(=O)N(C)CC(=O)Nc1c(Cl)cccc1Cl (stereo not given) | -11.1% | i
CC1(C(=O)Nc2ccc3c(c2)OCCO3)CCN1C(=O)C1(c2ccccc2)CC1 (stereo not given) | -4.9% | i
CC(C)(C)c1ccc(-c2nc3n(c(=O)c2C#N)CCS3)cc1 | -12.7% | -15.9%
NC(=O)NCc1ccccc1 | -20.0% | -10.9%
Brc1ccc2nc3c(n2c1)CCCC3 | -14.7% | -27.6%
Clc1cccc(NC2=NCCC2)c1 | -2.0% | .
COc1ccc(NC(=O)N(C)C[C@H]2Oc3c(NC(=O)Cc4ccccc4)cccc3C(=O)N([C@H](C)CO)C[C@@H]2C)cc1 | 3.8% | -7.1%
O=C(Nc1ccc(F)c(Cl)c1)C1Cc2ccccc2CN1S(=O)(=O)c1ccc(F)cc1 (stereo not given) | -19.8% | -15.5%
O=C(Nc1ccccc1C(=O)NC(Cc1c[nH]c2ccccc12)C(=O)O)c1ccccc1 (stereo not given) | 3.3% | i
O=C(Nc1cccc(S(=O)(=O)NC2=NCCC2)c1)c1cc(F)c(F)c(F)c1F | -19.6% | -16.7%
Cc1ccn(CC(C)C(=O)O)n1 (stereo not given) | 2.2% | i
Cc1c(Cl)cccc1NC(=S)N1CCC(N(C)CC2CCCO2)CC1 (stereo not given) | -2.7% | -27.5%
O=C(Cc1ccccc1)Nc1ccc2oc(-c3cccnc3)nc2c1 | -0.6% | -14.7%
CC1CCCCC1NC(=O)CN(C)S(=O)(=O)c1cccc2nsnc12 (stereo not given) | -2.1% | .
O=C(Cc1ccccc1C(=O)O)Nc1cccc2ccccc12 | 0.9% | ?
Cn1c(NCc2ccccc2F)nc2cc(-c3ccsc3)sc2c1=O | ? | ?
Cc1nn(-c2ccccc2)c(C)c1/C=N/NC(=O)c1cc(C2CC2)[nH]n1 | -15.6% | .
O[C@@H](CNC[C@H](O)c1ccccc1)c1ccccc1 | -15.7% | -14.8%
Cc1ccccc1OCCOc1ccc([N+](=O)[O-])cc1/C=N/n1cnnc1 | -9.1% | -12.2%
C=CC1C(N2CCOCC2)C(C)(C)S1(=O)=O (stereo not given) | -22.4% | -17.3%
COc1ccc(CC(=O)N2CCN(c3cccc(Cl)c3)CC2)cc1OC | -7.6% | -19.0%
O=C1c2ccccc2C(O)N1c1ccc(Cl)cc1 (stereo not given) | -0.1% | 3.9%
CC(=O)[C@H]1[C@@H]2C(=O)N(c3cccc(Cl)c3)C(=O)[C@@H]2[C@H]2c3ccccc3C=CN21 | 14.8% | .
CC(C(=O)O)C1SC(=O)NC1=O (stereo not given) | -0.4% | -4.0%
Cc1ccc(OCCNC(=O)c2cncc(Br)c2)cc1C | ? | ?
CCc1nc(SCC(=O)N2CCOCC2)c2c(=O)n(C)c(=O)n(C)c2n1 | 7.2% | -0.5%
O=C(NCCOC(=O)c1ccncc1)c1ccccc1 | -0.7% | .
COc1ccc(NC(=O)CN(C)Cc2cccs2)cc1Cl | -24.2% | -26.2%
O=C(NCCc1cn2ccccc2n1)c1ccccc1F | -10.5% | -10.6%[1.46 µM]
Cn1c(=O)c(-c2cc(Br)ccc2N)nc2ccccc21 | ? | .
Cc1c(NS(=O)(=O)c2ccc3c(c2)OCCO3)cccc1-c1nc2cccnc2s1 | -17.2% | -17.2%
CC(=O)N1CCc2cc(S(=O)(=O)NCc3ccc(C)cc3)ccc21 | -11.0% | -1.1%
CC1=CCC2C(=O)N(c3ccc(C(=O)N4CCCCCC4)cc3)C(=O)C2C1 (stereo not given) | -8.3% | -19.2%
COC(=O)c1sc(-c2ccc(C(C)(C)C)cc2)cc1NC(=O)/C=C/C(=O)O | -11.7% | -21.1%
COc1ccc2cc(C(=O)C3CCCN(C(=O)c4cc5nc(C)cc(C)n5n4)C3)ccc2c1 (stereo not given) | -3.7% | -7.2%
O=C(NCc1ccccc1)C(c1ccccc1)N(C(=O)c1csnn1)c1ccccc1 (stereo not given) | -5.1% | -9.7%
Cc1ccc([C@H]2N[C@]3(CCCN(Cc4ccc(F)cc4)C3=O)[C@H]3C(=O)N(C)C(=O)[C@@H]23)cc1 | -8.2% | -14.6%
COC(=O)C[C@H]1C=C[C@@H](C(C(=O)OC)C(=O)OC)CN1C(C)=O | -6.3% | i
O=C(Nc1ccc(Cl)c(Cl)c1)Nc1ccc([N+](=O)[O-])cn1 | -21.2% | -0.7%

# Looked up by compound from above:
canonical_smiles | VACV Venus inh | VACV mCherry inh
Brc1ccc2nc3c(n2c1)CCCC3 | -14.7% | -27.6%
CC1(C(=O)Nc2ccc3c(c2)OCCO3)CCN1C(=O)C1(c2ccccc2)CC1 (stereo not given) | -4.9% | i
Cc1c(NS(=O)(=O)c2ccc3c(c2)OCCO3)cccc1-c1nc2cccnc2s1 | -17.2% | -17.2%
Cn1c(=O)c(-c2cc(Br)ccc2N)nc2ccccc21 | ? | .
COc1ccc(C(=O)Nc2cccc(S(=O)(=O)N3CCCC3)c2)cc1S(=O)(=O)N1CCOCC1 | -8.0% | i

# Other compounds:
canonical_smiles | VACV Venus inh | VACV mCherry inh
CC(=O)C1C(c2ccc([N+](=O)[O-])cc2)C2C(C)=NN=C2CC1(C)O (stereo not given) | -5.4% | -19.7%
Cc1cnc(C(=O)OCC(=O)N2CCN(C(=O)c3ccco3)CC2)cn1 | 0.5% | -1.8%
O=C1C2C3C=CC(C4CC34)C2C(=O)N1c1nccs1 (stereo not given) | -6.2% | -7.7%
CCOC(=O)c1c(N)sc2c1CCCC2=O | -6.2% | i
COc1ccccc1NS(=O)(=O)c1cc(NC(=O)c2ccncc2)ccc1N1CCOCC1 | -23.3% | i
CCC(C)S(=O)(=O)c1snnc1C (stereo not given) | -11.7% | .
Cc1sc2nc(CSc3nc4ccccc4c(=O)n3CCCN3CCOCC3)[nH]c(=O)c2c1C | 0.8% | -0.8%
CCOc1ccc(C(=O)Nc2cccc3cccnc23)cc1 | -20.6% | -0.9%
O=C(Cn1nnc(-c2ccccc2)n1)OCc1ccccc1 | 16.3% | 18.4%
COCCNCCCOc1ccc(C(C)(C)c2ccccc2)cc1 | -22.6% | -25.9%
COc1cccc(CNC(=O)CNS(=O)(=O)c2ccc(Br)s2)c1 | -21.7% | -15.2%
Cc1cccc(OCCC(=O)Nc2nnc(C)s2)c1 | -15.2% | i
CC(C)CNC(=O)NC(=O)COC(=O)C1CSC2(c3ccc(F)cc3)CCC(=O)N12 (stereo not given) | -1.3% | i
COc1cccc(C(O)c2nc(-c3cncnc3)cs2)c1 (stereo not given) | -10.8% | i
CC1CCc2nc(N)c(C#N)c(-c3ccncc3)c2C1 (stereo not given) | -4.5% | -12.0%
COc1cc(/C=C(\C#N)c2nc3ccccc3s2)cc([N+](=O)[O-])c1O | -1.7% | -10.2%
CCOC(=O)N1CCc2cc(OC)c(OC)c3c2c1cc1cc(OC)c(OC)cc13 | ? | -29.6%
CCOC(=O)CNC=C(C(=O)OCC)C(=O)OCC | -9.7% | .
COc1cc(C2C(C(=O)Nc3ccccc3)=C(C)Nc3nc(SCC(=O)c4ccc(C)cc4)nn32)ccc1O (stereo not given) | 0.9% | -14.5%
CSc1nccc(Nc2ccccc2)c1C#N | -11.8% | .
CC1Cc2ccccc2N1c1nc(C2CC2)nc2c1nnn2Cc1ccccc1 (stereo not given) | -13.0% | .
O=C(COC(=O)/C=C/c1cccc(C(F)(F)F)c1)NC(=O)NC1CCCC1 | -5.5% | i
Cc1cccc(OCCCC(=O)Nc2nccs2)c1C | 24.4% | -6.9%
COc1ccc(NC(=O)c2cc3ccccc3o2)cc1 | -22.8% | -17.2%[1.46 µM]
Cc1ccc(CNC(=O)CSc2nnc3c(n2)[nH]c2ccc(F)cc23)cc1 | 3.7% | 15.1%
COc1cc(C(CCN2CCOCC2)c2c(OC)cc(OC)c3c(C)cc(=O)oc23)cc(OC)c1OC (stereo not given) | -12.7% | -6.2%
COc1ccccc1/C=C(\NC(=O)c1ccc(OC)c(OC)c1)C(=O)Nc1ccc([N+](=O)[O-])cc1 | -10.8% | i
CCc1nc2c(OCCOc3ccc(F)cc3)cccn2c1N(C)C(=O)c1ccc(OC)cc1 | ? | ?
Nc1ccc(S(=O)(=O)Nc2nccs2)cc1N=Nc1ccccc1[N+](=O)[O-] | -10.0% | -19.4%
O=C(NCC(c1ccco1)N1CCN(c2ccccc2F)CC1)C(=O)NC1CCCCC1 (stereo not given) | -10.1% | i
O=C(Cn1c(=O)oc2cc(S(=O)(=O)N3CCCCCC3)ccc21)NCc1ccccc1Cl | -23.0% | -4.8%
O=C1C2C3C=CC(C3)C2C(=O)N1Cc1ccc(CN2C(=O)C3C4C=CC(C4)C3C2=O)cc1 (stereo not given) | 17.1% | -3.5%
CCc1ccc2nc(N3CCN(C(=O)c4ccccc4)CC3)sc2c1 | -24.4% | -14.3%
CC(C)(C)NC(=O)C(c1ccccn1)N(C(=O)C1CSC(=O)C1)c1cccc(F)c1 (stereo not given) | -14.3% | -8.2%
CCCNC(=O)c1noc2c1CCc1cc(OC)ccc1-2 | 1.0% | -2.6%
Cc1nc(SCC(=O)NC2CCS(=O)(=O)C2)c2c3c(sc2n1)CCC3 (stereo not given) | -2.3% | i
Cn1cc2cccc([N+](=O)[O-])c2n1 | 0.5% | i
CCCC(=O)Nc1nnc(C2CCCO2)s1 (stereo not given) | -1.7% | -1.0%
COc1cnc(-c2ccccn2)[nH]c1=O | -0.2% | -14.1%
CCOc1ccc2nc(N3CCCC(C(=O)Nc4c(C)cccc4C)C3)sc2c1 (stereo not given) | -17.1% | -6.3%
O=C(NCc1cccc(Br)c1)C1CC2Cn3c(nc4ccccc43)C2N1c1ccccc1 (stereo not given) | -22.9% | -6.9%
O=C(O)c1ccccc1-c1ccc(/C=C/c2cc(C(F)(F)F)[nH]c(=O)n2)o1 | 15.8% | -8.0%
O=C(CN1CCN(c2ncccn2)CC1)N1CCCc2c1c(=O)oc1ccc(O)cc21 | ? | .
CCOc1cc(CNCCSc2nnnn2C)cc(Br)c1OCc1ccccc1 | -28.4% | -17.0%
CCc1nc2c(OCc3ccc(C(F)(F)F)cc3)cccn2c1N(C=O)Cc1ccc(OC)cc1 | -18.2% | -19.8%
Cc1cccc(/C(N)=N/OC(=O)C23CC4CC(CC(C4)C2)C3)c1 | -10.5% | -8.4%
CC(C)(C)c1ccc(C(=O)NCCC(=O)N2CCC3(CC2)NCCc2[nH]cnc23)cc1 | -0.2% | -19.6%
CCOc1ccc2oc(C(=O)N3CCN(c4ccccc4OCC)CC3)c(C)c2c1 | -15.3% | i
COc1ccc(CCNC(=S)N2CCN(S(=O)(=O)c3ccc(C)cc3)CC2)cc1 | ? | -9.5%
O=C(Cc1ccc(F)cc1)NC1CC(=O)N(c2ccc3c(c2)OCCO3)C1 (stereo not given) | -10.9% | -8.3%

# Further entries follow:
canonical_smiles | VACV Venus inh | VACV mCherry inh
O=C(NNC(=S)NCCc1ccccc1)c1ccc(Br)s1 | -13.9% | -10.7%
CCOC(=O)c1c(-c2ccc(OC)cc2)csc1NC(=O)CSc1ccccc1 | -20.5% | -29.0%
O=C(c1ccccc1Cl)N(Cc1ccco1)Cc1ccco1 | -1.7% | -6.5%
CC(Sc1nc2ccccc2c(=O)n1CC1CCCO1)C(=O)Nc1ccc(S(N)(=O)=O)cc1 (stereo not given) | -20.2% | i
COc1cc(C(=O)OC2C[C@H]3CC[C@@H](C2)N3C)ccc1O (stereo not given in full) | -19.2% | i
Nc1ccc(/C=C/c2ccc3cccnc3c2)cc1 | -4.0% | 17.3%
Cc1cccc(N2CCN(C(=O)c3ccc(Nc4nc5ccccc5n5nnnc45)cc3)CC2)c1C | -6.9% | -16.3%
CCOC(=O)c1ccc2c(c1)n(CC)c(/C=C/N(C)c1ccccc1)[n+]2CC | -15.1% | -12.5%
CSc1ccc(/C=N/N(C)S(=O)(=O)c2ccc(C)cc2)cc1 | -1.4% | -12.5%
